High-throughput results (PubChem)
GIV Gai3 FP – blocks GIV peptide binding to rat Galpha-i3 | P08753 | Galpha-i3/FITC-GIV peptide fluorescence polarization, 90 min; hits give low values; scaled: aluminum fluoride 0%, vehicle 100% | percent of control (FP), % (test concentration not listed) | hit rate 0.42% among 210,000;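 active = replicate mean at 85% of control or lower, very high polarization wells dropped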;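 note: wells of about 15 µL received 100 nL stock; the first replicate is given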
Target sequence (P08753 whole entry, looked up): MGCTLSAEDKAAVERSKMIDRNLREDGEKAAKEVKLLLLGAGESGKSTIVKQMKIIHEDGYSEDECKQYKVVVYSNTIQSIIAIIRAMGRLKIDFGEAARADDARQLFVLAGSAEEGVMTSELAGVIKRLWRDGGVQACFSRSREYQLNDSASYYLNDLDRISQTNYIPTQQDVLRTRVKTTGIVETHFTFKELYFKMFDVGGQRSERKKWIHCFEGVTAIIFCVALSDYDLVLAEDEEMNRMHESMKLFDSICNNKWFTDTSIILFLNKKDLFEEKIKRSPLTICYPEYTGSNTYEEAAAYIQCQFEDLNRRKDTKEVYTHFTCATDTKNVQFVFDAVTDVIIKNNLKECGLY
HCMV UL50-53 inh – cytomegalovirus nuclear egress complex inhibition; hit rate 0.15% among 190,000; HTRF UL50-UL53 interaction, normalized percent inhibition; AID 1918969; inhibition, % (concentration not given with the values);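 active = both replicates at 50% or more, plus weaker picks with an unusually low signal ratio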;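 note: stock transfer was 100 nL into about 20 µL; 0% = negative control wells and 100% = wells with untagged competitor protein; inactives centre near -12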
Sa growth 42C – S. aureus growth inhibition | hit rate 0.53% among 170,000 | AID 720641 | relative growth, % (concentration not given with the values) | S. aureus RN4220 growth, OD600, 20 h, 42 °C; hits give low values;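 active = growth at 42 °C up to 50% and 20 or more points under that at 30 °C, or under 10% at both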;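 note: 300 nL library stock went into each well; scaled to the means of positive and negative controls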
Sa growth 42C second temp – also measured in Sa growth 42C; calls as there; relative growth, %; measured here: growth at 30 °C;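 optical density after 20 h as mean of two plates; 100% = untreated growth and lower means inhibition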
* hit, by the source's call; . = no result given; & = joins results of further samples. Rows were taken by chance; 0.83% or so of the library scored in one or more.

SMILES	GIV Gai3 FP	HCMV UL50-53 inh	Sa growth 42C	Sa growth 42C second temp
O=C(NC1(C(F)(F)F)Oc2ccccc2O1)N1CCCc2ccccc21	100	.	79	84
O=C(CCC1N=C2c3ccccc3N=C(SCc3ccc(F)cc3)N2C1=O)NCCc1ccccc1 (stereo unspecified)	110	.	100	107
COc1nc(-c2ccccc2)cc(C(F)(F)F)n1	100	.	87	94
CCOC(=O)n1c(=O)oc2ccccc21	105	-9	93	84
Cc1nc(-c2cccc(NC(=O)CN3CCN(S(=O)(=O)Cc4ccccc4)CC3)c2)cs1	.	-14	98	83
COc1ccc(NC(=O)CC2(CC(=O)O)CCCCC2)cc1OC	105	8	102	95
O=C(CSCc1ccc(Cl)cc1)c1ccccc1F	.	-42	103	84
O=C(c1cccc(Cl)c1)c1nnc(-c2ccccc2)o1	.	-32	88	88
Cc1ccc2c(c1)-c1c(cnn1CC(=O)Nc1ccc(S(=O)(=O)N3CCCCC3)cc1)CO2	105	-18	93	81
COc1ccccc1C(=O)Nc1ccc(C(=O)OCc2cc(=O)n3c4c(sc3n2)CCCC4)cc1	96	.	72	91
Cc1ccc(C)n1-c1nnc(N2CCCC(C(=O)NCc3ccc(F)cc3)C2)s1 (stereo unspecified)	101	-5	105	93
COc1cccc(-c2nc(-c3ccc(C)nc3OC)no2)c1	101	14	.	.
CCc1ccc(NC(=O)Cn2c(=O)oc3cc(S(=O)(=O)NCc4ccccc4)ccc32)cc1	107	-4	94	84
COc1ccc(C(=O)CC2(O)C(=O)N(Cc3ccc(Cl)cc3)c3ccccc32)c(OC)c1 (stereo unspecified)	107	-20	.	.
COc1cccc(CNc2ncnc3onc(-c4ccc(F)cc4)c23)c1	101	.	82	93
Cc1nc2nc(SCC(=O)NCCc3ccc(Cl)cc3)nn2c(C)c1Cc1c(F)cccc1Cl	101	.	106	88
CC1CCCCN1C(=O)Nc1c[nH]c2ccccc12 (stereo unspecified)	105	-132	2.7*	8.7*
O=C1CC(c2ccco2)CC2=C1C(c1ccc(Cl)cc1)n1ncnc1N2 (stereo unspecified)	101	-40	101	91
CC1(C)OC(=O)N(c2ccccc2)/C1=C\C[N+](C)(C)C	.	-9	86	95
CCc1nn(CC(=O)N2CCN(c3ccc(OC)cc3)CC2)c(=O)c2cc3sccc3n12	97	-8	92	90
O=C(NCc1ccccc1Cl)c1cc2c(s1)-c1ccccc1SC2	101	-20	105	87
COc1ccccc1N1C(=O)C(Cc2ccccc2)N=C1N1CCC(C)CC1 (stereo unspecified)	103	-28	94	86
COc1cc(Br)cc2cc(C(=O)N3CCN(c4ccccn4)CC3)c(=O)oc12	105	-9	110	92
O=C1CSC(c2ccc([N+](=O)[O-])cc2)N1c1ccc(Oc2ccccc2)cc1 (stereo unspecified)	103	-34	.	.
Cc1ccc(C)c(S(=O)(=O)NCC(c2ccc(N(C)C)cc2)N2CCOCC2)c1 (stereo unspecified)	99	.	110	92
(more compounds)
SMILES	GIV Gai3 FP	HCMV UL50-53 inh	Sa growth 42C	Sa growth 42C second temp
CCOc1ccc(OCCBr)cc1	.	-14	109	94
O=c1[nH]ncc(N2CCCCCC2)c1Cl	106	.	92	84
COC(=O)C1=C(C)N(C)C(=O)N(C)C1c1ccc(O)cc1 (stereo unspecified)	103	-13	98	90
CCOC(=O)c1oc2ccccc2c1CBr	.	-19	97	84
CCC(C)NC(=O)COc1ccc(Br)c(C)c1 (stereo unspecified)	105	4	103	99
Clc1ccccc1-c1nnc(-c2ccccc2CNc2ccc(Br)cc2)o1	107	-4	114	90
COC(=O)CSc1ccc2c(N)c(C(=O)OC)sc2c1	.	-49	114	83
O=C(Nc1cccnc1)OCC(F)(F)F	.	-17	86	92
CC(C)CCNC(=O)C1CCN(C(=O)c2cc3sccc3n2Cc2ccc(Cl)cc2)CC1	102	3	107	85
COc1ccc(-c2c(C)c3ccc(O)c(CN4CCN(CCO)CC4)c3oc2=O)cc1OC	109	.	80	90
CC(=O)N1CCCc2cc(S(=O)(=O)NCc3ccc4c(c3)OCO4)ccc21	98	4	125	86
COc1cccc(-c2nnn(CC(=O)N3CCCC3)n2)c1	.	-16	102	90
COc1ccc2cc(S(=O)(=O)c3ccccc3F)c(=O)oc2c1	100	-52	104	87
O=C(c1cc(=O)nc2sc(N3CCCCC3)nn12)N1CCC(N2CCCCC2)CC1	105	-28	.	.
COc1ccc2nc(N(Cc3cccnc3)C(=O)C3COc4ccccc4O3)sc2c1 (stereo unspecified)	109	.	117	90
Nc1nc2c(c(=O)[nH]1)C(c1cc(Br)ccc1F)CC(=O)N2 (stereo unspecified)	104	13	.	.
O=C(c1ccc(N2CCOCC2)nc1)N1CCOCC1	100	2	90	107
COc1ccc2[nH]cc(CCNC(=O)c3ccc(Cl)cc3)c2c1	96	1	.	.
Oc1ccc(C2NCCc3c2[nH]c2ccc(Cl)cc32)cc1O (stereo unspecified)	140	-2	.	.
COC(=O)C1=NNC(c2ccccc2)(c2ccccc2)C1	.	-16	109	102
CCN1CCN(c2cc(C)c3cc(NC(=O)c4cc(Br)ccc4Cl)ccc3n2)CC1	106	-15	84	88
COc1ccc(OC)c(CNC(=O)Cn2c(=O)sc3ccccc32)c1	96	0	.	.
CCN1CCN(Cc2ccc(NC(=O)c3cc4ccc5cccnc5c4[nH]3)cc2)CC1	105	8	101	85
Cc1cc(C)cc(NC(=O)Cc2noc3ccc(C)cc23)c1	99	-10	108	95
C=CCn1c(CNC(=O)c2ccccc2)n[nH]c1=S	101	-3	104	75
(listing goes on)
SMILES	GIV Gai3 FP	HCMV UL50-53 inh	Sa growth 42C	Sa growth 42C second temp
COC(=O)c1c(C)nn(C(C)=O)c1COc1ccccc1	104	6	115	98
O=C(O)c1ccccc1NC(=O)C(F)(F)F	102	-8	105	76
N#C/C=N/N(c1ccccc1)c1ccccc1	.	-20	80	88
Cc1nnc(Nc2cccc(F)c2)s1	97	-4	99	100
CC1OC(C)C(C)C(c2ccccc2O)O1 (stereo unspecified)	.	1	105	102
Clc1ccc(OCCN2CCNCC2)cc1	96	.	105	83
Cc1ccc(S(=O)Cc2ccc(C(=O)NC3CCCC(C)C3C)o2)cc1 (stereo unspecified)	104	-7	108	94
CC1CN(C(=O)C(C)C)CC(C)O1 (stereo unspecified)	.	-10	98	90
O=C1CCCC2=C1C(c1ccc(F)cc1)c1c([nH]c(=O)[nH]c1=O)N2 (stereo unspecified)	102	-8	78	95
Cc1cc(=O)n2[nH]c(NCc3ccc(F)cc3)nc2n1	108	8	92	92
Nc1cccc(N2CCn3c(nc4ccccc43)C2)c1	118	-67	.	.
O=C(NCc1ccc(F)cc1)c1ccc(S(=O)(=O)N2CCCC2)cc1	.	-34	95	97
CCOC1(OCC)N=C(N)C2(C#N)C(c3ccccc3F)C12C#N (stereo unspecified)	111	-7	98	90
CCOC(=O)c1c(C)[nH]c(CCC(=O)Nc2ccccc2C(=O)OC)c1C	107	.	96	90
COC(=O)C1CC(C)=CC(C)C1C(=O)O (stereo unspecified)	102	-14	134	88
COc1ccc(Br)cc1CNc1ccc(N2CCOCC2)cc1	99	-21	133	95
CC(C)Cc1ccc(C(C)c2nc(-c3cccs3)no2)cc1 (stereo unspecified)	101	-44	97	89
CCN(CC)S(=O)(=O)c1ccc2c(c1)N(CC(=O)N1CCOCC1)C(=O)CO2	101	-19	.	.
Cc1cccc(OCC(=O)Nc2ncn(Cc3ccc(Cl)cc3)n2)c1C	106	22	.	.
Cn1c(=O)c(C(=O)N2CC=C(c3ccccc3)CC2)nn(-c2ccc(Cl)cc2)c1=O	102	-3	.	.
O=C(CSc1nc2ccccc2nc1Cc1ccccc1)Nc1ccc2c(c1)OCO2	102	.	79	88
Cc1ccc(Cn2c3ccccc3c3cnn(CC(=O)NCc4ccccc4Cl)c(=O)c32)cc1	103	-16	.	.
CCCCOc1ccc(NC(=O)c2cc(=O)c3cc(Cl)c(C)cc3o2)c2cccnc12	100	-5	.	.
CC(C)(C)c1ccc(C(=O)NC2CCSC2=O)cc1 (stereo unspecified)	105	-11	84	90
Cc1ccc2cc3c(nc2c1)OCC3	103	-30	99	84

Already shown: an excerpt of the list.
SMILES	GIV Gai3 FP	HCMV UL50-53 inh	Sa growth 42C	Sa growth 42C second temp
O=C(NCc1ccc(F)cc1)c1ccc(S(=O)(=O)N2CCCC2)cc1	.	-34	95	97
CCOC1(OCC)N=C(N)C2(C#N)C(c3ccccc3F)C12C#N (stereo unspecified)	111	-7	98	90
CCOC(=O)c1c(C)[nH]c(CCC(=O)Nc2ccccc2C(=O)OC)c1C	107	.	96	90
COC(=O)C1CC(C)=CC(C)C1C(=O)O (stereo unspecified)	102	-14	134	88
COc1ccc(Br)cc1CNc1ccc(N2CCOCC2)cc1	99	-21	133	95

Other entries
SMILES	GIV Gai3 FP	HCMV UL50-53 inh	Sa growth 42C	Sa growth 42C second temp
Cc1ccc(-c2cn3c(n2)SCC3)cc1	104	.	90	83
Cn1c(=O)c2c(nc3n(-c4ccccc4N)c(-c4ccc(Cl)cc4)cn23)n(C)c1=O	103	-17	.	.
O=C(Nc1ccc([N+](=O)[O-])cc1Cl)c1cc(Cl)ccc1O	99	-15&-11&-20	-0.6*	-0.1*
CCSc1oc(-c2ccc(F)cc2)nc1S(=O)(=O)c1ccc(C)cc1	105	1	93	87
CN(C)S(=O)(=O)c1cccc(COC(=O)c2cn(-c3ccccc3)nc2-c2cccs2)c1	.	-11	109	95
CCc1cccc(NC(=O)CCC(=O)N2CCSc3ccccc32)c1	108	.	95	104
COc1cccc(NC(=O)CN2C(=O)CSc3ccc(C(=O)N4CCCC4)cc32)c1	107	-35	.	.
O=C(Nc1ccc(-c2nc3ccccc3[nH]2)cc1)c1ccccc1	99	-3	95	78
CC(C)C(NC(=O)c1ccc(Cl)nc1)c1ccc2c(c1)OCCCO2 (stereo unspecified)	.	-23	78	91
Cc1cc(C)c(NC(=O)c2cc3sc(Cl)cc3n2C)c(C)c1	100	7	94	97
Cc1noc(C)c1CN(C(=S)NC1CC1)c1ccccc1	.	-23	80	87
Cc1[nH]n(-c2ccccc2)c(=O)c1CCC(=O)O	.	-20	90	91
CC(C)OCCCn1c(=O)c2cc(Cl)ccc2n2c(SCc3cccc(Cl)c3)nnc12	99	-1	.	.
CCOC(=O)C1=C(C)NC2=C(C(=O)CC(C)(C)C2)C1C (stereo unspecified)	.	-24	100	80
COC(=O)C1=C(C)N=c2s/c(=C3\C(=O)N(C)c4ccccc43)c(=O)n2C1c1cccs1 (stereo unspecified)	102	-28	.	.
O=C(CN1C(=O)c2cccc3cccc1c23)Nc1cccc(F)c1	103	-31	90	93
Cc1cc(C(=O)O)ccc1-c1ccc(/C=N/n2cnnc2)o1	99	-120	81	69
O=C(NCc1ccccc1)C1CCN(S(=O)(=O)c2ccc3c(c2)CCCN3C(=O)C2CCC2)CC1	100	.	119	91
CC(=O)N1CCN(c2ccc(NC(=O)COc3ccc4ccccc4c3)cc2)CC1	.	-1	107	87
CC(C)Oc1ccc(C(=O)NCCc2csc3nc(-c4cccc(F)c4)nn23)cc1	97	1	.	.
Cc1ccc2c(c1)-c1c(cnn1CC(=O)NCCCN1C(C)CCCC1C)CO2 (stereo unspecified)	104	.	89	90
Cc1cc(C(F)(F)F)nn1CC(=O)Nn1c(-c2ccccc2F)nc2ccccc2c1=O	105	-4	.	.
O=C1OCCC1N1C(=O)c2ccccc2S1(=O)=O (stereo unspecified)	.	-11	80	78
Cc1cccc(Nc2ccc(NC(=O)c3ccccc3)c3c2C(=O)c2ccccc2C3=O)c1	93	-5	.	.
Cc1cc(C)c(CO)c(C)c1CO	98	6	99	113

Some of the entries so far, field by field.
Cn1c(=O)c(C(=O)N2CC=C(c3ccccc3)CC2)nn(-c2ccc(Cl)cc2)c1=O
- GIV Gai3 FP: 102
- HCMV UL50-53 inh: -3
- Sa growth 42C: .
- Sa growth 42C second temp: .

CCN1CCN(Cc2ccc(NC(=O)c3cc4ccc5cccnc5c4[nH]3)cc2)CC1
- GIV Gai3 FP: 105
- HCMV UL50-53 inh: 8
- Sa growth 42C: 101
- Sa growth 42C second temp: 85

CC(=O)N1CCN(c2ccc(NC(=O)COc3ccc4ccccc4c3)cc2)CC1
- GIV Gai3 FP: .
- HCMV UL50-53 inh: -1
- Sa growth 42C: 107
- Sa growth 42C second temp: 87

Cc1ccc(C)c(S(=O)(=O)NCC(c2ccc(N(C)C)cc2)N2CCOCC2)c1 (stereo unspecified)
- GIV Gai3 FP: 99
- HCMV UL50-53 inh: .
- Sa growth 42C: 110
- Sa growth 42C second temp: 92

(next part)
SMILES	GIV Gai3 FP	HCMV UL50-53 inh	Sa growth 42C	Sa growth 42C second temp
O=C(O)CSc1nnc2nnc3ccccc3n12	103	-257	88	80
O=C(Nc1ccc(Cl)c(Cl)c1)N1CCC(c2ccccc2)C1 (stereo unspecified)	105	.	60	75
CCC(C)c1ccc(N=C(NO)c2ccc(OC)cc2)cc1 (stereo unspecified)	.	16	85	91
COCCOC(=O)C1=C(C)NC2=C(C(=O)CC(c3ccc(OC)c(OC)c3)C2)C1c1ccccc1OC (stereo unspecified)	100	-21	.	.
CC(C)NC(=O)CN1CCN(C(=O)c2ccc(N3CCNCC3)c(NS(C)(=O)=O)c2)CC1	97	-20	.	.
COc1ccc2c(c1)OC13CCCCC1C2C(C(=O)c1ccccc1)C(=O)N3 (stereo unspecified)	99	.	94	87
CC(C)N(Cc1nnc(-c2ccccc2Cl)o1)C(=O)CCN1C(=O)NC2(CCCC2)C1=O	.	-15	84	92
NNC(=O)CS(=O)(=O)c1ccc(C(F)(F)F)cn1	102	-20	88	89
CCOC(=O)c1ccc(NC(=O)Cn2c(-c3nnc(C)o3)cc3ccccc32)cc1	99	4	.	.
O=C(c1cnc2n(c1=O)CCS2)N(Cc1ccccc1)c1ccccc1	103	4	97	90
